Compound activity as filed in PubChem.
KCNQ2 enhance = potentiators of rat KCNQ2 potassium channel | Potassium voltage-gated channel subfamily KQT member 2 (Rattus norvegicus), O88943 | CHO-K1 KCNQ2, FluxOR thallium flux fluorescence; hits give high values | B-score at 10 µM | 0.54% of 310,000 active | AID 2239, 2010;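 active means fluorescence ratio B-score at least 3 SD of library B-scores, with initial fluorescence B-score within 3 SD, cut at about 5.3 in these data; same plate scores as AID 2156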;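 further: B-score of peak minus minimum over baseline fluorescence ratio after K+ and Tl+ stimulus; positive B-score means potentiation of KCNQ2 with more thallium influx and brighter signal; only the inactives scoring about 0 or higher are listed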
Target sequence (O88943 whole entry, looked up): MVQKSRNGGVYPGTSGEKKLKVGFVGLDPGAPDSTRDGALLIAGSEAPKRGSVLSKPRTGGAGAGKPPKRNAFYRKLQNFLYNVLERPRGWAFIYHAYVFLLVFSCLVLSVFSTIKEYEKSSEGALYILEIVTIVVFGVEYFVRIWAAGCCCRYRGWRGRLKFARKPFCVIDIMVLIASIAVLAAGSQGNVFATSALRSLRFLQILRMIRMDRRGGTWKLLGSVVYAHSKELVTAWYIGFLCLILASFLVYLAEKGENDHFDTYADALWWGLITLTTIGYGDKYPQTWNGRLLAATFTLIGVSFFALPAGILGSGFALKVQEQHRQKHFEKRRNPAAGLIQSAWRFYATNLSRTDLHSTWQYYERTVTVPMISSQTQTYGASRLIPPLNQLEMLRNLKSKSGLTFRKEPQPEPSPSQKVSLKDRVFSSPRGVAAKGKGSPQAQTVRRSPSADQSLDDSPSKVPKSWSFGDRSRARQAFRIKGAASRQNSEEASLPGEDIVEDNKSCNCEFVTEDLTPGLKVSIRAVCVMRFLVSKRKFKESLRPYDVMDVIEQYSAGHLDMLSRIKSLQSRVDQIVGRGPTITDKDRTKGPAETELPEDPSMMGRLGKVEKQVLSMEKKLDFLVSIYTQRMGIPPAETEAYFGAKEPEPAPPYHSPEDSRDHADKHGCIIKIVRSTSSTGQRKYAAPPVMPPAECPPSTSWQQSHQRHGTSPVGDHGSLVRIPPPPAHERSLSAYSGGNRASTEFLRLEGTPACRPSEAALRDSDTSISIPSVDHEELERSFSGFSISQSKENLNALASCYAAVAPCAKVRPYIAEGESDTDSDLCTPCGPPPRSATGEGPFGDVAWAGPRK
KCNQ2 enhance baseline = recorded beside KCNQ2 enhance, whose call it bears; B-score; compound at 10 µM; measured here: initial fluorescence intensity artifact check;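 brightness before thallium and not channel activity; 0 = typical well and far values either way flag optical interference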
An asterisk follows results filed as active. The list is partial; rates above refer to the full screens.

Results follow in this order: KCNQ2 enhance baseline, KCNQ2 enhance
- CCOc1ccc(NC(=O)CC(Cc2ccc(Cl)cc2)C(=O)O)cc1 (stereo not drawn)
→ -0.03, 0.22
- CN1CCN(C(=O)/C(=C\c2ccc3c(c2)OCO3)NC(=O)c2cccs2)CC1
→ -0.5, 1.4
- O=C(NCCNC(=O)c1cc(OCC(F)(F)F)ccc1OCC(F)(F)F)Nc1ccc(OC(F)(F)F)cc1
→ 0.77, 0.61
- COc1ccc(CC(=O)c2ccc(OC3OC(CO)C(O)C(O)C3O)cc2O)cc1 (stereo not drawn)
→ 0.37, 1.1
- O=C(CCNS(=O)(=O)c1cccs1)N1CCN(c2cccc(Cl)c2)CC1
→ -0.37, 1.9
- CC1(c2ccc(Cl)cc2Cl)OCC(Cn2ccnc2)O1 (stereo not drawn)
→ 0.68, 0.08
- COc1ccc(N2CC(C(=O)OC(C)C(=O)c3ccccc3)CC2=O)cc1 (stereo not drawn)
→ 1, 0.27
- Cc1cc(CNC(=O)COc2ccc(C#N)cc2)c2ccccc2n1
→ -0.57, 0.63
- CCOC(=O)C(=CNCC(=O)OC)C(=O)OCC
→ 0.85, 1.4
- Cc1ccc(S(=O)(=O)NCCC(=O)N2CCN(c3cccc(Cl)c3)CC2)cc1C
→ -0.12, 1.4
- Cc1ccc(S(=O)(=O)N2CCC(C(=O)NCCc3ccccn3)CC2)cc1
→ -1.4, 0.41
- COC(=O)C1=C(N)Oc2cc(C)n(CC3CCCO3)c(=O)c2C1c1ccccc1OC (stereo not drawn)
→ -1.6, 0.2
- c1ccc(Cn2ccnc2-c2ccco2)cc1
→ -1.8, 0.23
- CC(C)(C)C(=O)Nc1cc(NC(=O)C(C)(C)C)cc(C(=O)Nc2cc(C(=O)O)cc(C(=O)O)c2)c1
→ -0.05, 0.73
- CCOC(=O)c1ccc(NC(=S)N(CCN2CCCCCC2)Cc2ccco2)cc1
→ -0.55, 0.75

Results follow in this order: KCNQ2 enhance baseline, KCNQ2 enhance
- CC1CN(C(=O)COC(=O)c2ccc(N(C)C)cc2)CC(C)O1 (stereo not drawn)
→ 1.5, 0.58
- Cc1nc2nc[nH]n2c(=O)c1NS(=O)(=O)c1ccc([N+](=O)[O-])cc1
→ 0.32, 2.1
- Cc1ccc(CC(=O)Nc2ncc([N+](=O)[O-])s2)cc1
→ 0.1, 3.2
- C=CCN(CC=C)C(=S)NC(=O)c1ccc(-c2ccccc2)cc1
→ 1.8*, 7.3*
- O=C1c2cccnc2C(=O)N1Cc1ccc(S(=O)(=O)N2CCOc3ccc(Cl)cc32)cc1
→ -1.3, 0.64
- CCOC(=O)c1c(CN(C)C)n(-c2ccc(C)cc2)c2cc(Br)c(O)cc12
→ -0.01, 0.63
- Cc1ccc(C)c(N(C(=O)CNC(=O)c2ccco2)C(C(=O)NC2CCCCC2)c2ccncc2)c1 (stereo not drawn)
→ -0.28, 1.6
- Fc1ccc(NC(=S)Nc2cccc(Cl)c2)cc1
→ 1.9, 0.49
- CCCC(=O)Nc1ccc2c(c1)nc(CCNC(=O)c1ccco1)n2C
→ -0.72, 0.03
- CC(=O)Nc1ccc(S(=O)(=O)Nc2nc3ccc(C)cc3s2)cc1
→ -2.5, 0.68
- N#CC(C#N)=NNc1ccc(S(=O)(=O)N2CCCCC2)cc1
→ 0.32, 0.98
- COCc1[nH]nc2c1C(c1ccccc1OC)C(C#N)=C(N)O2 (stereo not drawn)
→ 0, 1.3
- Cc1[nH]c2ccccc2c1-c1nc(-c2ccc(Cl)cc2)nnc1-c1ccccc1
→ -0.76, 0.65
- CC(CNC(=O)CCS(=O)(=O)c1ccc2c(c1)oc(=O)n2C)c1ccccc1 (stereo not drawn)
→ 0.36, 1.9
- Cc1cc(C)nc(N2CCCC(C(=O)Nc3nc4ccc(S(C)(=O)=O)cc4s3)C2)n1 (stereo not drawn)
→ -0.41, 0.2

Results follow in this order: KCNQ2 enhance baseline, KCNQ2 enhance
- CCCc1ccc(-c2ccc(F)c(N)c2)nc1
→ -1.1, 2.1
- CC1CCC(C(=O)NC(C(=O)N2CCC(N3CCCCC3)CC2)C(C)C)CC1 (stereo not drawn)
→ 0.01, 0.23
- CC1CCCCN1CCNc1nc(=S)[nH]c2ccccc12 (stereo not drawn)
→ 0.44, 0.25
- CCN1CCc2c(C#N)c(NCc3ccccc3)nc(N(CC)CC)c2C1
→ -0.52*, 9.1*
- COc1ccccc1CNS(=O)(=O)c1ccc2[nH]cc(C(=O)O)c(=O)c2c1
→ -1.3, 1.7
- COC(=O)C(NC(=O)Nc1ccccc1OC)C(C)C (stereo not drawn)
→ -0.18, 0.1
- COc1ccc(N(CC(=O)NC2CCCCC2)C(=O)CNC(=O)c2ccco2)c(OC)c1
→ -0.22, 0.01
- Cc1ccc(NC(=S)NCc2ccc3c(c2)OCO3)c(C)c1
→ -0.79, 3.5
- COC(=O)c1sccc1NC(=O)CSc1ccccc1NS(=O)(=O)c1ccc(Br)cc1
→ -0.68, 1
- COc1ccc(C)cc1S(=O)(=O)N(CC(=O)O)c1ccccc1
→ -0.99, 0.73
- CC12CCC(C(=O)NCCc3ccccc3)(OC1=O)C2(C)C (stereo not drawn)
→ 0, 0.85
- COc1cc(/C=N/n2nnnc2N)ccc1OCC#N
→ -1.1, 0.82
- CNC(=O)c1cccnc1Nc1cccc(C(F)(F)F)c1
→ 1.1, 0.89
- O=C(Cc1cccs1)Nc1nc2c(s1)CCCC2
→ -0.43, 2
- CC(=O)Nc1ccc(NC(=O)Oc2ccccc2)cc1
→ -1.9, 1.3

Results follow in this order: KCNQ2 enhance baseline, KCNQ2 enhance
- COc1ccc(-n2c(C)c(C(C)=O)c3cc(OCC(N)=O)ccc32)cc1
→ 1.9, 1
- C/C(=N/NC(=O)c1cccs1)c1ccc(NC(=O)COc2ccc(Cl)cc2)cc1
→ 0.01, 0.33
- CCN(CC)CCNC(=O)c1ccc(NC(=O)C2CCN(S(=O)(=O)c3ccc4c(c3)OCCO4)CC2)cc1
→ -0.22, 1.7
- Cc1cccc(N2CCN(C(=O)CCCn3c(=O)[nH]c4ccsc4c3=O)CC2C)c1 (stereo not drawn)
→ -0.11, 0.75
- COc1ccc(CCNC(=O)CSc2nn(-c3ccccc3)c(=S)s2)cc1OC
→ 1.8, 0.29
- Cc1cc(Br)c(S(=O)(=O)NCCN2CCOCC2)cc1C
→ -0.1, 0.4
- CCOP(=O)(c1ccccc1)C1(O)CCCCC1 (stereo not drawn)
→ -1.3, 0.56
- CN(C)CCN(C(=O)C1CCCCC1)c1nc2cc3c(cc2s1)OCO3
→ -0.01, 1.1
- COCCCNC(=O)c1cc(Nc2ccc(OC)cc2OC)nc2ccccc12
→ 0.07, 0.01
- COc1ccc(/C=C2\SC(=S)N(CCCC(=O)N3CCOCC3)C2=O)cc1OC
→ 0.48, 0.27
- CCc1cc(-c2[nH]ncc2-c2ccc([N+](=O)[O-])cc2)c(O)cc1OC
→ -0.53, 0.97
- COc1ccc(Cn2c(=O)[nH]c3cc(C(=O)Nc4ccc(N5CCN(C)CC5)cc4)ccc32)cc1
→ 0.37, 0.18
- CCOC(=O)C1(C)C=C(Nc2ccc(NC(C)=O)cc2)C(=O)N1c1ccc(NC(C)=O)cc1 (stereo not drawn)
→ -0.57, 0.06
- O=C(CC(c1ccccc1)c1cc(Br)ccc1O)N1CCCCC1 (stereo not drawn)
→ 1.2, 0.5
- Cc1cc(NC(=NC2CC2)c2ccccc2)n(-c2ccccc2)n1
→ -1.3, 0.35

A run of entries from the list above:
Results follow in this order: KCNQ2 enhance baseline, KCNQ2 enhance
- Cc1ccc(NC(=S)NCc2ccc3c(c2)OCO3)c(C)c1
→ -0.79, 3.5
- COC(=O)c1sccc1NC(=O)CSc1ccccc1NS(=O)(=O)c1ccc(Br)cc1
→ -0.68, 1
- COc1ccc(C)cc1S(=O)(=O)N(CC(=O)O)c1ccccc1
→ -0.99, 0.73
- CC12CCC(C(=O)NCCc3ccccc3)(OC1=O)C2(C)C (stereo not drawn)
→ 0, 0.85

Next records:
Results follow in this order: KCNQ2 enhance baseline, KCNQ2 enhance
- CCOc1ccc(C(=S)N2CCN(C)CC2)cc1
→ -0.13, 1.1
- OC(COCC(F)(F)C(F)(F)C(F)(F)C(F)F)Cn1c2ccc(Cl)cc2c2cc(Cl)ccc21 (stereo not drawn)
→ -1.5, 0.72
- O=C(NCc1cccnc1)c1ccc(Br)s1
→ -0.36, 0.9
- Cc1cc(C(=O)Nc2ccc(C#N)cc2)on1
→ -0.59, 0.79
- CSc1nc(C)cc(Oc2ccc(=O)n(C)n2)n1
→ 0.23, 1.4
- COc1ccc(C(=O)N2CCN(c3ccccc3OC)CC2)cc1
→ 0.03, 0.7
- Cc1c(C(Nc2ccccn2)c2ccccc2)c(=O)n(-c2ccccc2)n1C (stereo not drawn)
→ 0.28, 0.52
- S=c1[nH]nc(C2CCCCC2)n1/N=C/C(Cl)=C\c1ccccc1
→ 0.03, 1.7
- Clc1nssc1=Nc1ccc(Br)cc1
→ -0.92, 0.06
- CCn1c2ccccc2c2cc(N=C3SC(CC(=O)Nc4ccccc4)C(=O)N3C)ccc21 (stereo not drawn)
→ -0.49, 1.4
- COc1ccc(NC(=O)CC2C(=O)N(c3ccc(Cl)cc3)C(=S)N2CCc2ccccn2)cc1 (stereo not drawn)
→ 0.3, 0.69
- CCCCCn1c2c(c(=N)c3ccccc31)CCC2
→ -0.33, 0.75
- O=C(CN1CCN(CC(=O)Nc2ccccc2F)CC1)Nc1cccc(F)c1
→ 1.9, 1.5
- COC(=O)c1ccc(CNC(=O)Cn2cnnn2)cc1
→ 0.58, 0.96
- COc1ccc(-c2csc(NC(=O)c3ccccc3F)c2C(=O)O)cc1
→ 0.52, 0.92

Results follow in this order: KCNQ2 enhance baseline, KCNQ2 enhance
- CN1C(=O)Cc2cc(S(=O)(=O)N3CCN(c4ccc(Cl)cc4)CC3)ccc21
→ -0.39, 1
- C/C(=N\NC(=O)c1ccoc1C)c1ccc(Br)s1
→ -0.76, 0.99
- NC(=O)C1CCN(Cc2cccc(OCc3ccccc3)c2)CC1
→ 1.1, 0.01
- N#Cc1ccc(CSCC(=O)O)cc1
→ -0.01, 2
- CCOC(=O)CC1C(=O)NCCN1C1CCCC1 (stereo not drawn)
→ -0.51, 0.8
- COc1cc2nc(SCC(N)=O)n(CCC3=CCCCC3)c(=O)c2cc1OC
→ 0.32, 0.53
- COc1ccc(N(CC(=O)NCCSc2ccccn2)S(=O)(=O)c2ccccc2)c(OC)c1
→ -2.1, 1.4
- Nc1ncc(-c2ccccc2)c(-c2ccc(O)cc2O)n1
→ -0.55, 2.9
- CCCCNC(=O)C1COc2ccccc2O1 (stereo not drawn)
→ -1.1, 1.1
- Cc1ccccc1NC(=O)c1ccc2c(c1)C(=O)N(CC(C)C)C2=O
→ 0.74, 0.22
- CN(C)CCN1C(=O)C(=O)/C(=C(/O)c2ccc3c(c2)OCCO3)C1c1ccccn1 (stereo not drawn)
→ 0.92, 0.72
- OCCC1CN(Cc2nc(-c3ccc(F)cc3)cs2)CCN1CCc1ccccc1 (stereo not drawn)
→ 0.04, 0.45
- Cc1nn(C)c(C)c1NS(=O)(=O)c1ccc(N2CCCC2=O)cc1
→ -0.15, 0.86
- O=C(CC(c1ccco1)C1CCCCC1=O)c1ccco1 (stereo not drawn)
→ 0.07, 1.3
- COc1ccc(N(CC(=O)NCCSCc2c(F)cccc2Cl)S(C)(=O)=O)cc1OC
→ -0.03, 0.2

Overlap with the part before: two compounds, followed by the next part.
Results follow in this order: KCNQ2 enhance baseline, KCNQ2 enhance
- O=C(CC(c1ccco1)C1CCCCC1=O)c1ccco1 (stereo not drawn)
→ 0.07, 1.3
- COc1ccc(N(CC(=O)NCCSCc2c(F)cccc2Cl)S(C)(=O)=O)cc1OC
→ -0.03, 0.2
- Cc1ccc(SC(=O)COc2ccccc2C)cc1
→ -0.65, 1.1
- O=C(CCCn1cc([N+](=O)[O-])cn1)Nc1cccnc1
→ 0.31, 0.92
- Cc1cc(C(C)(C)C)oc1C(=O)Nc1ccc(CC(=O)O)cc1
→ -1.3, 0.09
- CSCCC(NS(=O)(=O)/C=C/c1ccccc1)C(=O)NCCc1ccc(S(N)(=O)=O)cc1 (stereo not drawn)
→ -0.98, 0.5
- C=CCSc1nccc(=O)[nH]1
→ 0.66, 0.34
- Cc1ccc(NC(=O)CSCC(=O)NCc2ccco2)cc1
→ -0.31, 0.32
- O=C(/C=C/Nc1ccccc1)C(F)(F)F
→ -1.6, 0.49
- Cc1[nH]c2ccccc2c1C(=O)CN1CC(C)OC(C)C1 (stereo not drawn)
→ -3.4, 1.3
- COc1ccc(N2CCN(C(=O)NC3CCCCC3)CC2)cc1
→ 0.2, 0.2
- COc1ccc2nc(-c3ccc(Cl)cc3)cc(C(=O)O)c2c1
→ 0.1, 1.3
- CCOc1ccc(N(C(=O)c2ccc(S(=O)(=O)N3CCCC3)cc2)C2C=CS(=O)(=O)C2)cc1 (stereo not drawn)
→ 1.2, 0.17
- O=C1c2ccccc2-c2c1cccc2C(=O)N1CCCCC1
→ 0.55, 1
- O=C(Nc1cccc2c1CCCC2)c1ccc(F)cc1
→ -3.2, 3.8
- CC(=O)N1CC(C)Sc2ccc(S(=O)(=O)NCCc3cccc(C)c3)cc21 (stereo not drawn)
→ 0, 0.52
- COc1ccc(C(=O)NC(NC(=O)c2ccc(OC)cc2)c2ccccc2F)cc1
→ -0.17, 0.1

Results follow in this order: KCNQ2 enhance baseline, KCNQ2 enhance
- CC(C)Oc1cccc(C(=O)NC(=S)Nc2cccc(C(F)(F)F)c2)c1
→ -1.5, 0.56
- Fc1ccccc1-n1cc(-c2ccccc2)[nH]c1=S
→ 0.37, 0.12
- Cc1cccc(NC(=O)C2CCN(c3ncnc4c3nc3n4CCCCC3)CC2)n1
→ -1.6, 0.93
- CCOc1ccc(S(=O)(=O)NCc2ccc3c(c2)OCO3)cc1NC(C)=O
→ -0.01, 1.4
- COc1ccc(OC)c2[nH]c(=O)c(CCNC(=O)c3cccs3)cc12
→ -0.02, 0.22
- COc1ccc(C(=O)N2CCCCC2)cc1S(=O)(=O)Nc1ccccc1
→ 1.2, 0.96
- COc1ccc(N=Cc2cccc(C)c2O)cc1Cl
→ -1, 0.04
